KSHV LANA nucl = LANA-nucleosome interaction inhibition. FITC-LANA1-23 / chicken nucleosome fluorescence polarization; active compounds read low. z-score (no concentration beside the values). 0.3% of 51,000 active. AID 720717;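 active means both repeat wells score below -2 in polarization z-score versus plate sample wells, excluding overly bright wells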;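 further: 100 nL library stock added to about 30 µL; numbers are from one replicate; some results filed as inactive read as strong as hits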
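Material: Purified chicken nucleosomes with FITC-labelled LANA N-terminal peptide (1-23) | Reagent: 50 nM FITC-LANA1-23 probe | Medium: TEN-BT buffer, pH 7.5 | Times: 10–45 min incubation at room temperature | Detection: Fluorescence polarization | Replication: Duplicates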
Ab BasE inh = inhibitors of Acinetobacter baumannii siderophore enzyme BasE; 0.1% of 84,000 active; purified BasE, fluorescence polarization binding displacement; inhibition, % (no concentration beside the values);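 active means both replicates above 25% with normal brightness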;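 further: 0% = negative plate control signal and 100% = positive plate control signal; stock transfer was 100 nL into about 30 µL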
Active calls of the source: *; nt = not tested or not shown.

Molecule | KSHV LANA nucl | Ab BasE inh
CCCCNC(=O)C1CCCN1S(=O)(=O)c1cccc2nsnc12 (configuration not stated) | -0.25 | 0.6
Cc1cc(CSc2nnc(NC3CC3)s2)no1 | nt | 1.0
Cn1cc(C2=C(c3cn(CCCSC(=N)N)c4ccccc34)C(=O)NC2=O)c2ccccc21 | 2.3 | -9.0
O=C(CSc1ncn[nH]1)c1cccc(C(F)(F)F)c1 | nt | -2.4
Cc1nc2ccccc2c2nc(N)nn12 | -0.49 | 0.6
Cc1ccc(S(=O)(=O)N2CCN(S(=O)(=O)c3cccs3)CC2)cc1 | 0.34 | -3.2
Clc1ccc(C(Cn2ccnc2)OCc2c(Cl)cccc2Cl)c(Cl)c1 (configuration not stated) | -0.85 | -2.1
O=C(OCCN1C(=O)c2ccccc2C1=O)c1c2c(nc3ccccc13)CCC2 | nt | -0.5
CN(C)c1ccc(/C=C2/C=C(c3ccccc3)OC2=O)cc1 | 3.6 | -8.6
Cc1cc(N)ccn1 | nt | -0.7
N#Cc1cc(C#N)c(SCc2ccc(Cl)cc2)nc1N | 0.51 | -1.7
CC1CC(Sc2nnc(-c3cccs3)n2C2CC2)C(=O)O1 (configuration not stated) | nt | 0.6
COc1cc(C#N)ccc1OC(=O)Cc1coc2ccc3ccccc3c12 | nt | -1.8
Cc1ccc(CCN2CC(C(=O)NC3CCCCC3)CC2=O)cc1 (configuration not stated) | 1.3 | 0.7
CC(C)c1ccc(NC(=O)CSc2n[nH]c(=O)n2C(C)c2ccccc2)cc1 (configuration not stated) | nt | 1.7
O=C(CSc1ccccc1C(=O)Nc1ccnn1Cc1cccs1)NCc1ccco1 | nt | 1.0
COc1ccc(C2=NN(C(=O)COc3ccc(-c4nnco4)cc3)C(c3ccco3)C2)cc1 (configuration not stated) | nt | -0.6
Cc1ccc(NC(=O)Nc2c(C)noc2-c2cccs2)cc1 | -0.38 | -1.3
CC(=O)N1CCOc2cc(S(=O)(=O)NCCN(C)C)c(Cl)cc21 | -1.5 | 1.2
NC(=O)n1c(CCC(=O)O)nc2sc3c(c2c1=O)CCC3 | nt | 6.2
c1ccc2c3c([nH]c2c1)-c1nonc1CC3 | -0.13 | 1.2
O=C(CCCc1nc2ccccc2c(=O)[nH]1)Nc1ccccc1N1CCOCC1 | nt | 1.8
CC1CCN(C(=O)c2cc(N(C)S(=O)(=O)c3ccccc3)ccn2)CC1 | -0.093 | -1.4
Cc1ccc(-c2n[nH]c(=S)c3ccccc23)cc1S(=O)(=O)NCc1cccnc1 | nt | -0.6
CC(C)Cc1nc2ccc(N)cc2[nH]1 | -0.57 | 2.7
O=C(Nc1ccccc1C(=O)NC1CCS(=O)(=O)C1)C1=CSCCO1 (configuration not stated) | -1 | 2.9
O=C1C2CCCC1C(c1ccc3c(c1)OCO3)NC2c1ccc2c(c1)OCO2 (configuration not stated) | 0.081 | 3.2
CCN(c1ccccc1)c1ncnc(N)n1 | 0.43 | 4.3
COc1ccc2nc(N(CCN(C)C)C(=O)C3CCCCC3)sc2c1 | -1.9 | -20
COC(=O)C1=C(CSc2nc(C)cc(C)n2)NC(=O)NC1c1ccc(F)cc1 (configuration not stated) | nt | 1.1
CCCCNC(=O)C1CCN(S(=O)(=O)CC)CC1 | -0.69 | 0.2
CCOC(=O)/C(C#N)=C/c1cc(C(=O)OCC)c(N)s1 | nt | -5.6
Cc1cc(NC(=O)C(C)SCC(=O)O)no1 (configuration not stated) | nt | 0.2
COc1ccc(C2NS(=O)(=O)N=C2N)cc1 (configuration not stated) | -0.47 | -0.1
N#Cc1ccc(/C=N/NC(=S)Nc2ccc(S(=O)(=O)N3CCOCC3)cc2)cc1 | nt | -3.9
Cc1[nH]c2ccccc2c1C1=CCN(S(=O)(=O)c2cccc3nsnc23)CC1 | -0.68 | -2.3
CC1CC(C)CN(C(=O)NC2(C(F)(F)F)Oc3ccc(Cl)cc3O2)C1 (configuration not stated) | -0.22 | 14
C(=Nc1ccc2ccccc2c1)Nc1ccc2ccccc2c1 | nt | -1.9
Cc1ccc(-c2csc(=Nc3ccccc3)n2CCCN(C)C)cc1 | nt | -0.1
CCn1c(SCC(=O)NC(C)C)nnc1-c1ccco1 | nt | 1.1
COC(=O)c1c(-c2c(Cl)cccc2Cl)noc1NC(=O)N(C)C | nt | 0.2
N#Cc1ccc(N2CCCC2)c(C#N)c1Cl | 0.39 | nt
COc1ccc2[nH]c(=O)c(CN(Cc3ccco3)C(c3nnnn3Cc3ccccc3)C(C)C)cc2c1 (configuration not stated) | 0.4 | 0.8
Cc1nc2ccc(N3NOC=C3O)cc2s1 | 0.41 | -1.2
Cc1nc2sccn2c(=O)c1S(=O)(=O)Nc1ccccc1 | -0.36 | 1.8
CN(C)c1ccc(/C=C/CN2CCC(O)CC2)cc1 | 1.3 | -1.2
Nc1nc(CSc2ccccn2)nc(Nc2ccccc2)n1 | 0.46 | -1.3
CC1(O)c2ccccc2C(=O)N1Cc1ccccc1 (configuration not stated) | 0.13 | 4.2
O=C(O)CCCOc1ccc2c(c1)OCO2 | -0.55 | 1.3
CC1CCN(S(=O)(=O)c2ccc(NC(=O)CSc3nnnn3C)cc2)CC1 | -0.18 | 0.2

Four compounds picked at random from those above:
Molecule | KSHV LANA nucl | Ab BasE inh
COC(=O)C1=C(CSc2nc(C)cc(C)n2)NC(=O)NC1c1ccc(F)cc1 (configuration not stated) | nt | 1.1
CC1CCN(S(=O)(=O)c2ccc(NC(=O)CSc3nnnn3C)cc2)CC1 | -0.18 | 0.2
Cc1ccc(-c2csc(=Nc3ccccc3)n2CCCN(C)C)cc1 | nt | -0.1
CC1CC(C)CN(C(=O)NC2(C(F)(F)F)Oc3ccc(Cl)cc3O2)C1 (configuration not stated) | -0.22 | 14

Next compounds.
Molecule | KSHV LANA nucl | Ab BasE inh
CC(C)NC(=O)c1ccc2c(c1)N(Cc1ccc(Cl)cc1)C(=O)c1ccccc1S2=O (configuration not stated) | -0.045 | -2.0
COc1ccccc1N1CCN(C(=O)c2nc(S(=O)(=O)Cc3ccccc3)ncc2Cl)CC1 | -0.97 | 0.5
CN1CC(=O)NC1=NC(=O)c1cc(F)c(F)cc1Cl | nt | 1.4
COc1cc(-c2noc(CCC(=O)Nc3cccc(C)c3C)n2)cc(OC)c1OC | 0.13 | -0.1
COc1ccc(Cl)cc1NCC(=O)Nc1ccc2c(c1)OCCO2 | nt | 0.7
CC1CCCC(NC(=O)COC(=O)COc2ccccc2C#N)C1C (configuration not stated) | nt | -0.5
O=C(O)c1cc(=O)c2cc(Cl)ccc2o1 | nt | 3.2
CC(C)=NOC(=O)Nc1ccc(Cl)cc1 | -0.64 | 1.4
COC(=O)/C(C#N)=C/c1ccc(Cl)cc1 | 0.05 | 4.0
COc1ccc(Cl)cc1NC(=O)c1ocnc1C | 1.2 | -0.8
CCOC(=O)c1ccc(Nc2ncnc3c2cnn3Cc2ccccc2)cc1 | 0.53 | -1.7
OCCn1c2ccccc2c2cc(Cl)ccc21 | -0.93 | 0.4
Clc1ccc(-c2csc3ncnc(NCc4ccco4)c23)cc1 | nt | -3.4
COc1cccc(CN(CCO)Cc2ccccc2)c1OC | -0.18 | 1.2
O=C(O)c1ccccc1N1Cc2ccccc2C1=O | -0.68 | nt
COC(=O)c1ccccc1S(N)(=O)=O | nt | -1.2
CNCCCc1ccco1 | 0.22 | -1.4
O=C(O)c1cc(S(=O)(=O)NCCN2CCNC2=O)ccc1O | nt | 3.2
NCC1CCCN(CCc2ccccc2)C1 (configuration not stated) | 0.42 | -0.1
CCCc1nnc(NC(=O)C2CC(=O)N(C3CCCC3)C2)s1 (configuration not stated) | -0.64 | 0.9
N#Cc1c(-c2c(O)[nH]c3ccccc23)c2c(-c3ccncc3)[nH]nc2oc1=N | 0.43 | -0.4
Cc1ccc(C(=O)NCC(=O)OC2CCCCC2=O)cc1C (configuration not stated) | nt | 0.0
Cc1ccc2c(COC(=O)C3CSC4(C)CCC(=O)N34)cc(=O)oc2c1C (configuration not stated) | nt | -1.0
CCn1c(SCc2ccc(C#N)cc2)nnc1-c1ccco1 | nt | -1.4
CCOC(=O)c1nc(Cn2cc(I)cn2)no1 | -1.6 | 0.8

Single records (already shown). Values in the order: KSHV LANA nucl	Ab BasE inh
COc1ccc(Cl)cc1NC(=O)c1ocnc1C is listed with 1.2	-0.8
Cc1ccc2c(COC(=O)C3CSC4(C)CCC(=O)N34)cc(=O)oc2c1C (configuration not stated) is listed with nt	-1.0

(more compounds)
Molecule | KSHV LANA nucl | Ab BasE inh
O=C(CC(c1ccccc1)c1ccccc1)N1CCN(c2ccccn2)CC1 | 0.093 | 2.8
CCc1cc(=O)[nH]c(SCc2cccc(Cl)c2)n1 | -0.28 | nt
CCC1CCCCN1C(=O)/C=C/c1ccc(C)cc1 (configuration not stated) | -0.22 | -0.8
Cc1ccc(S(=O)(=O)NCC2OCCc3ccccc32)cc1 (configuration not stated) | nt | 0.1
O=c1[nH]nc(N2CCN(c3nc(CSc4ccccc4)nc4sc5c(c34)CCC5)CC2)c(=O)[nH]1 | nt | -0.5
CC(C(=O)N1CCCCC1)N1c2cccc3cccc(c23)S1(=O)=O (configuration not stated) | -0.98 | -1.2
CCN=c1scc(-c2ccc(O)c(C(N)=O)c2)n1/N=C/c1ccc2c(c1)OCCO2 | nt | 0.8
C/C(=N\N=C1\NC(=O)CS1)c1cccs1 | 0.7 | 1.1
CC(=O)Nc1ccc(CNCCc2nnc3ccccn23)cc1 | nt | -1.1
O=C(CSC1=Nc2ccccc2C2=NC(CC(=O)NCc3ccccc3)C(=O)N12)NCc1ccco1 (configuration not stated) | 0.79 | -0.2
Cc1oc(-c2ccccc2Cl)nc1Cn1cccc1C1=NC(c2ccccc2)CO1 (configuration not stated) | -0.82 | 1.0
COC(=O)CC(=O)N1CCN(c2ccc(Cl)c(Cl)c2)CC1 | 0.66 | nt
CCOc1ccc(N(CC)C(=O)C2CCCN2S(=O)(=O)c2cccc3nsnc23)cc1 (configuration not stated) | -1.2 | 0.5
CCOC(=O)c1sc2nc(C)nc(Cl)c2c1C | nt | -20
CN(CC(=O)Nc1ccc(OC(F)(F)F)cc1)C(=O)C1CC(=O)N(C2CCCC2)C1 (configuration not stated) | nt | 1.7
Cc1ccc(NC(=O)C(c2ccccc2)N2CCCCC2)cc1 (configuration not stated) | nt | 1.2
CCn1c(=O)cc(SCC(=O)NC(C)C)c2ccccc21 | -0.95 | -1.7
COC(=O)C(Cc1csc2ccc(Cl)cc12)NC(=O)c1ccc(C(F)(F)F)cc1 (configuration not stated) | nt | 0.6
NC(=O)NC(=O)CC1S/C(=N/N=C/c2ccccc2)NC1=O (configuration not stated) | 0.081 | -2.4
O=C(c1cc(=O)[nH]c2ccccc12)N(Cc1ccco1)Cc1cccs1 | nt | 1.6
CSc1cccc(N2CC(C(=O)N3CCN(S(=O)(=O)Cc4ccccc4)CC3)CC2=O)c1 (configuration not stated) | nt | -1.3
CN(c1ncc(C(F)(F)F)cc1Cl)n1cccc1 | -0.09 | nt
O=C(NCc1ccccc1)c1cccc(S(=O)(=O)N2CCN(c3ccccc3)CC2)c1 | nt | 0.8
N#CCCn1cc(/C=N/NC(=O)c2cnccn2)c2ccccc21 | nt | 0.1
CN(C)Cc1ccccc1CNC(=O)CCC1CCCC1 | nt | 0.3

Laid out differently: entries from further up.
Every second line gives: KSHV LANA nucl	Ab BasE inh
> CN(c1ncc(C(F)(F)F)cc1Cl)n1cccc1
→ -0.09	nt
> O=C(c1cc(=O)[nH]c2ccccc12)N(Cc1ccco1)Cc1cccs1
→ nt	1.6
> CCc1cc(=O)[nH]c(SCc2cccc(Cl)c2)n1
→ -0.28	nt
> N#CCCn1cc(/C=N/NC(=O)c2cnccn2)c2ccccc21
→ nt	0.1

Following part
Molecule | KSHV LANA nucl | Ab BasE inh
N#Cc1sc2sc(C#N)c(-c3ccco3)c2c1N | nt | -3.7
CC(C)CC(=O)N1CCN(S(=O)(=O)c2ccccc2)CC1 | 0.94 | 2.2
C=CCn1c(SCc2nnc(-c3cccs3)o2)nc2scc(C3CC3)c2c1=O | nt | 2.0
CC(C)c1ccc(NC(=O)CSc2ncnc(N)n2)cc1 | 0.059 | -0.6
CCn1c(-c2ccc3c(c2)OCCO3)cnc1SCc1cc(=O)n2ccsc2n1 | nt | 1.6
COc1ccc(Cn2c(=O)c3oc4ccccc4c3n(CC(=O)Nc3ccccc3)c2=O)cc1 | -0.51 | 1.3
Cn1c(CNC(=O)Cc2cccnc2)nnc1SCc1ccccc1 | -0.23 | -2.7
O=C(O)CCC1NCC(Cn2c3ccccc3c3ccccc32)OC1=O (configuration not stated) | 0.32 | 2.5
CCOc1ccc(CN(C)C(=O)CNC(=O)c2ccc(Br)o2)cc1OC | nt | 0.5
COc1cc(OC)c(NC(=O)Cn2nc(C)c3c(C)n(-c4ccccc4)nc3c2=O)cc1Cl | nt | 0.4
O=c1[nH]c2ccc(S(=O)(=O)NCc3cccnc3)cc2[nH]1 | -0.11 | 1.8
COc1ccc(Nc2ccc3nnc(-c4ccc(Br)cc4)n3n2)cc1 | nt | -0.1
COc1ccc(C(=O)CSc2nc3c(cc2C#N)CCCC3)cc1 | nt | 2.7
Cc1c2cnn(-c3ccccc3)c(=O)c2c(C)n1CCCC(=O)NC(C)(C)C | 1.1 | -2.4
CC(C)(C)C1CCC(=NNC(=O)c2ccccc2O)CC1 (configuration not stated) | -0.65 | 1.5
CCCCCCN1C=CC(=C2C(=O)c3ccccc3C2=O)C=C1 | -1.6 | 10
CCC(CC)NC(=O)c1cc(=O)[nH]c2ccccc12 | nt | 0.5
COc1ccc(CN(Cc2cccs2)C(=O)c2ccc(C)o2)cc1OC | nt | 0.5
Nc1ncc(-c2cc3ccccc3oc2=O)s1 | nt | -0.9

From PubChem

These rows are one share of the data, so the mix of outcomes need not match the whole.
